# miR-21 reporter = raises the signal of a miR-21 reporter; AID 2288; 340,000 tested, under 10 active; Potency, µM (series often up to 38.3 µM), without a hit: top-dose reporter change, positive = more light; HeLa miR-21 FLuc reporter, luciferase, 48 h; active = well fitted rising curve with a large enough effect; inconclusive = small, poorly fitted or top-dose-only effect; inactive = no such curve, though single readings can be large or run the other way;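 further: % of control where 0% means no effect; miR-21 action dims this reporter so a rising signal means less miR-21 action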
#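 Luminescence from a firefly luciferase reporter carrying a miR-21 binding site downstream, stably expressed under a CMV promoter in HeLa cells that make miR-21 endogenously, reports miRNA modulation after 48 h compound exposure up to approximately 40uM final.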
# Rango dissoc inh = prevents RanGTP from dissociating the Rango-importin beta complex | hit rate 0.071% among 340,000 | Biochemical FRET Rango-importin beta, RanGTP-induced dissociation | Potency, µM (series often up to 46.1 µM), for inactives: at the highest dose activity change, negative = inhibition | O95149+P62826; active means falling FRET ratio curve, often poorly fitted, with flat reads before Ran was added; inconclusive means other falling curves, or compound fluorescence or quenching; inactive means flat or rising ratio curve;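 further: potency means the concentration at half of the fitted maximal effect; % of control where 0% means no effect; nearly all actives have a fitted effect of over 45% in size; -100% = wells without RanGTP and RCC1; the record marks most hits as doubtful in a second field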
#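 Rango (0.1 uM)–importin beta (0.25 uM) complex; RanGTP-RCC1 trigger; 45 min RT; CFP/YFP FRET read.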
# GLA inh pH 4.5 = blocks human alpha-galactosidase A at pH 4.5; P06280; purified enzyme, 4-MU-alpha-Gal fluorescence, pH 4.5; activity change, negative = inhibition, % at 105 µM; 230,000 tested, under 10 active; inconclusive = small, poorly fitted or top-dose-only inhibition, or a rising curve; inactive = flat fitted curve, though single readings scatter; no compound was filed as active;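 further: 0% = full activity with enzyme and -100% = basal without enzyme; dose as in the result columns while the protocol names 77 µM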
# Target sequence (P06280 whole entry, looked up): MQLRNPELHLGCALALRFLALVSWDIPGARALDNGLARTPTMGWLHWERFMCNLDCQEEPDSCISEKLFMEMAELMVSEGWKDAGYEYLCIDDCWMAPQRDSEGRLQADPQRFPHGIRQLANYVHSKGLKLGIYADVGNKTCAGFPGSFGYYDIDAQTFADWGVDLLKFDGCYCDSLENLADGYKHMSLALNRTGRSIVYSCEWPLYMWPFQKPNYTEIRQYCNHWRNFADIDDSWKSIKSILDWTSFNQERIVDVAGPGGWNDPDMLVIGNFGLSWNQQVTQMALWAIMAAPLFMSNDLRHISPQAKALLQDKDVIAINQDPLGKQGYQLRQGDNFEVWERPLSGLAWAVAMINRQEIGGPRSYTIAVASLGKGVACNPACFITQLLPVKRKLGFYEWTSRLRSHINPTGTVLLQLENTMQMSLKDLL
# Rango-impB inh = Rango-importin beta binding inhibition; Q14974; Rango CFP/YFP FRET sensor + importin beta, 45 min; Potency, µM (highest dose often 92.2 µM), for the others: at the top dose inhibition of complex formation; hit rate 0.031% among 340,000; AID 540263; active = rising FRET ratio curve, often small or poorly fitted; inconclusive = mostly compound fluorescence or quenching in the first reads; inactive = flat curves in all reads;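 further: potency means the concentration at half of the fitted maximal effect; 0% = DMSO wells and 100% = buffer wells lacking importin beta; nearly all actives have a fitted effect of over 15% in size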
#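 Inhibition scored from the CFP 486 nm/YFP 530 nm FRET ratio 45 min after adding 0.125 microM importin beta to 50 nM Rango biosensor preincubated 5 min with compound (room temperature, PBS with DTT, Tween-20, BSA). No-importin wells as positive control.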
# An asterisk follows results filed as active; ? = inconclusive; / = no result given. Only part of the results is shown. The share of hits here may be higher or lower than overall.
# A first look, 12 compounds:
SMILES,miR-21 reporter,Rango dissoc inh,GLA inh pH 4.5,Rango-impB inh
CC1(C)CN(c2cccc(C#N)c2)C1=O,-3%,10%,-3,0.7%
CC1C(c2ccccc2)N(C)C(c2ccccc2)CC1(O)c1ccc(F)cc1 (configuration not stated),16%,0%,1,-1.2%
CCOc1ccc(NCc2cccn2-c2nnc(N3CCC(C(=O)NCCCN4CC(C)CC(C)C4)CC3)s2)cc1 (configuration not stated),-8%,1%,/,1.0%
COc1ccc(-c2noc(CCCC(=O)Nc3ccc(C(N)=O)cc3)n2)cc1,?,-18%,3,-2.4%
Cc1cccc(C)c1NC(=O)Cn1cnc2c(=O)n(C)c(=O)n(C)c21,-5%,2%,5,-3.2%
CCN(CCn1cccn1)C(=O)c1cc(COc2cccc3cccnc23)on1,-8%,12%,2,2.7%
O=C(O)c1ccc(Cl)c(S(=O)(=O)N2CCCCCC2)c1,-9%,6%,-4,-0.9%
C=CCN1C(=O)[C@@H]2Cc3c([nH]c4ccccc34)C(c3cc(OC)c(OC)c(OC)c3)N2C1=S (some centres not stated),24%,?,/,?
O=C(Cn1cnc2c(nnn2Cc2ccc(F)cc2)c1=O)N1CCCc2ccccc21,-5%,6%,-11,0.7%
O=C(NCCOc1ccc(Cl)cc1)C(=O)NCC1CCCO1 (configuration not stated),-2%,-9%,4,-0.4%
COCc1ccc(C(=O)N2CCCCC2C(=O)Nc2ccc(-n3nc(C)cc3C)cc2)o1 (configuration not stated),2%,1%,/,-1.9%
C/C(=N\NC(=O)c1ccncc1)c1ccc(N2CCOCC2)cc1,/,-4%,/,-0.2%

# All compounds of this part, previewed entries included:
SMILES,miR-21 reporter,Rango dissoc inh,GLA inh pH 4.5,Rango-impB inh
CC1(C)CN(c2cccc(C#N)c2)C1=O,-3%,10%,-3,0.7%
CC1C(c2ccccc2)N(C)C(c2ccccc2)CC1(O)c1ccc(F)cc1 (configuration not stated),16%,0%,1,-1.2%
CCOc1ccc(NCc2cccn2-c2nnc(N3CCC(C(=O)NCCCN4CC(C)CC(C)C4)CC3)s2)cc1 (configuration not stated),-8%,1%,/,1.0%
COc1ccc(-c2noc(CCCC(=O)Nc3ccc(C(N)=O)cc3)n2)cc1,?,-18%,3,-2.4%
Cc1cccc(C)c1NC(=O)Cn1cnc2c(=O)n(C)c(=O)n(C)c21,-5%,2%,5,-3.2%
CCN(CCn1cccn1)C(=O)c1cc(COc2cccc3cccnc23)on1,-8%,12%,2,2.7%
O=C(O)c1ccc(Cl)c(S(=O)(=O)N2CCCCCC2)c1,-9%,6%,-4,-0.9%
C=CCN1C(=O)[C@@H]2Cc3c([nH]c4ccccc34)C(c3cc(OC)c(OC)c(OC)c3)N2C1=S (some centres not stated),24%,?,/,?
O=C(Cn1cnc2c(nnn2Cc2ccc(F)cc2)c1=O)N1CCCc2ccccc21,-5%,6%,-11,0.7%
O=C(NCCOc1ccc(Cl)cc1)C(=O)NCC1CCCO1 (configuration not stated),-2%,-9%,4,-0.4%
COCc1ccc(C(=O)N2CCCCC2C(=O)Nc2ccc(-n3nc(C)cc3C)cc2)o1 (configuration not stated),2%,1%,/,-1.9%
C/C(=N\NC(=O)c1ccncc1)c1ccc(N2CCOCC2)cc1,/,-4%,/,-0.2%
COC(=O)C1CCN(CC(=O)Nc2sc3c(c2C#N)CCC3)CC1,0%,-7%,-11,2.8%
CC1CN(C(=O)c2ccccc2Nc2ccc(SC(F)F)cc2)CC(C)O1 (configuration not stated),5%,6%,2,0.5%
O=C(Nc1ccc(Cc2ccncc2)cc1)c1cc([N+](=O)[O-])ccc1N1CCOCC1,-6%,2%,-5,3.0%
CC(=O)N1N=C(c2ccc3nccnc3c2)CC1c1ccccc1 (configuration not stated),-16%,-16%,-13,1.4%
CC(C)Cc1ccc(C2=CSC3=NCCN23)cc1,/,18%,/,2.0%
Cc1ccc2nc3c(cc(C#N)c(=N)n3CC3CCCO3)c(=O)n2c1 (configuration not stated),-31%,/,8,/
Cc1ccc(-c2nc3c(c(=O)[nH]c(=O)n3Cc3ccccc3)n2Cc2ccccc2)o1,15%,?,-7,?
COc1ccc(CNC(=O)CC2Sc3ccccc3NC2=O)cc1 (configuration not stated),0%,-16%,1,-1.6%
CC(C)=C(NC(=O)c1ccccc1)C(=O)Nc1ccc(C(=O)O)cc1,1%,-5%,-4,5.3%
Nc1nnc(SCC(=O)Nc2ccc(S(=O)(=O)N3CCOCC3)cc2)s1,-1%,12%,4,-1.0%
Cc1ccn2c(CNCCn3nc(C)cc3C)c(C(=O)N3CCCCCC3)nc2c1,-4%,6%,6,-5.7%
O=C(O)CSc1ncnc2sc(-c3ccccc3)cc12,-11%,1%,4,0.9%
CCC(C)Sc1ccc([C@H]2N[C@@](CC(C)C)(C(=O)OC)[C@H]3C(=O)N(C)C(=O)[C@@H]23)cc1 (some centres not stated),/,-23%,/,-2.1%
# The list continues:
SMILES,miR-21 reporter,Rango dissoc inh,GLA inh pH 4.5,Rango-impB inh
CCOc1ccc(C(=O)N/N=C(\c2ccccc2)c2ccccn2)cc1,-8%,6%,-11,5.0%
CCOC(=O)c1c(C)[nH]c(NC(=O)NNC(=O)c2ccc(OC)cc2)c1C,/,-13%,/,3.1%
CCC/C(O)=C1\C(=O)CCCC1=NCCc1c(C)[nH]c2ccc(C)cc12,2%,12%,-5,-1.5%
CCOC(=O)C1CCN(c2ncnc3c(C)csc23)CC1,-29%,2%,-1,3.6%
COc1ccc(CCNC(=O)C(=O)NCc2ccc(Cl)cc2)cc1OC,-2%,-9%,5,2.1%
CC(C)c1c(C(=O)N/N=C/c2cccc3ccccc23)nnn1-c1nonc1N,21%,-16%,/,0.6%
Cc1cc(NCc2ccccc2)n2ncnc2n1,-5%,11%,14,0.7%
CCCn1c(C2CCCN2c2nc(-c3ccc(C)cc3)cs2)nc2cc(Cl)c(N3CCCCC3)cc21 (configuration not stated),-7%,1%,/,1.0%
O=C(Nc1ccc2c(c1)OCCO2)C1CCN(S(=O)(=O)c2cccs2)CC1,-12%,-8%,-1,-1.4%
CC(NC(=O)c1ccccc1Cl)C(=O)OCc1cn2cc(Cl)ccc2n1 (configuration not stated),/,-8%,/,2.0%
Cc1ccc(C(=O)CSc2nnc(CNc3nc(-c4ccccc4)cs3)n2C)cc1,0%,-9%,-12,-0.2%
Nc1oc2ccccc2c1C(=O)Cc1ccccc1O[C@@H]1O[C@H](CO)[C@@H](O)[C@H](O)[C@H]1O,/,4%,/,-0.2%
COc1ccc(-c2csc3ncnc(N4CCN(CCO)CC4)c23)cc1,-3%,-8%,/,-1.7%
COc1ccc(-n2c(-c3cccc(OC)c3)nc(=S)c3c2CCCC3)cc1,-6%,-9%,-2,2.8%
COc1ccc(S(=O)(=O)N2C3CCC2CC(NC(=O)C2CC2)C3)cc1 (configuration not stated),-4%,-9%,-1,-0.3%
NC(=O)CSc1nnc(-c2ccccn2)n1N,-8%,3%,-11,-0.3%
O=C(Cc1ccc(Cl)cc1)Nc1ccccn1,-29%,8%,/,1.3%
COc1cccc(C2c3[nH]c4ccccc4c3CCN2Cc2cccn2-c2ncccn2)c1 (configuration not stated),0%,-6%,-18,?
CC(=O)Nc1ccc(S(=O)(=O)N(C)CC(=O)OC(C)C(=O)N(C)Cc2ccccc2)cc1 (configuration not stated),0%,-7%,/,-3.8%
COc1cccc(N2CCN(c3ncnc4c3[nH]c3ccc(F)cc34)CC2C)c1 (configuration not stated),?,-5%,0,-2.5%
CC(C)(C)OC(=O)C[C@@H]1C/C=C\C[C@H](CC(=O)N[C@H](CO)Cc2ccccc2)C(=O)N[C@@H](Cc2c[nH]c3ccccc23)COC1=O,/,-2%,/,0.0%
CCN(CC)c1ccc(CNC(=O)C/C(C)=N/NC(=O)COc2ccc(C)cc2Br)cc1,-4%,-6%,/,0.0%
O=C(CCCc1ccccc1)c1ccc2c(c1)OCCO2,29%,1%,-5,-9.8%
CCCN(C(=O)c1ccccc1N)c1c(C)n(C)n(-c2ccccc2)c1=O,-3%,-11%,-6,2.5%
CC(OC(=O)c1cccc(-n2cnnn2)c1)C(=O)Nc1ccc(F)c(F)c1F (configuration not stated),/,10%,/,-1.1%
# (next part)
SMILES,miR-21 reporter,Rango dissoc inh,GLA inh pH 4.5,Rango-impB inh
CC(=O)Nc1c(O)nc(SCc2ccc(Cl)cc2)[nH]c1=O,-9%,0%,2,1.2%
CCCn1c(=N)n(CC(O)COc2cccc(C)c2)c2ccccc21 (configuration not stated),22%,-2%,5,0.5%
CCOC(=O)C(C)Oc1c(Br)cc(C2NC(=O)NC(C)=C2C(C)=O)cc1OCC (configuration not stated),0%,6%,-9,3.5%
Cc1ccc(-c2noc(CN(C(=O)c3cccc(Br)c3)C(C)C)n2)cc1,1%,-1%,-6,-0.4%
CC(C(=O)N=c1sc2ccccc2n1C)N1C(=O)C2CC=CCC2C1=O (configuration not stated),-8%,-13%,2,?
O=C1CCC([N+](=O)[O-])C(c2cc3c(cc2Br)OCO3)N1 (configuration not stated),0%,-4%,-3,0.1%
CC1CCCC(C)N1CCCNC(=O)Cn1c(=O)c2cccn2c2cccnc21 (configuration not stated),0%,-15%,/,?
Cc1ccccc1-c1cc(-c2ccccc2O)on1,-33%,2%,-1,2.5%
CCN1CCN(CCNC(=O)CSCc2nc(-c3ccc(OC)c(OC)c3)oc2C)CC1,-5%,9%,4,0.2%
Cc1ccc(/C=N/N=C2/NC(=O)CS2)o1,-13%,35%,?,-1.2%
COc1ccc(CNC(=O)C(C)OC(=O)c2cccn2C)cc1 (configuration not stated),-10%,5%,10,-2.1%
CC(=O)OC(C#CCN1CCOCC1)c1ccccc1 (configuration not stated),-11%,20%,-2,-0.2%
NS(=O)(=O)c1ccc(NC(=O)CSc2nnc(-c3cnccn3)n2-c2ccccc2)cc1,-3%,-12%,5,2.7%
COc1ccc(N2CC(C(=O)Nc3ccc([N+](=O)[O-])cc3Br)CC2=O)cc1 (configuration not stated),1%,-12%,/,1.6%
CC(C)N1CCN(Cc2ccc3nsnc3c2)CC1CCO (configuration not stated),2%,19%,4,1.6%
O=C(CN1CCC(NC(=O)C2CC2)CC1)Nc1ccccc1[N+](=O)[O-],-9%,-20%,/,-0.5%
O=C(NCCN1C(=O)S/C(=C\c2ccc(Cl)cc2)C1=O)c1ccc(F)c(S(=O)(=O)N2CCOCC2)c1,-8%,2%,-2,-0.5%
COc1ccc(NC(=O)CSc2nc3c(c(=O)n2-c2ccc(C)cc2)SCC3)c(OC)c1,-11%,-9%,3,-4.2%
O=c1c2c3c(sc2nc(NCCO)n1Cc1ccco1)CCCCC3,-81%,12%,-2,1.3%
Cc1ccc2c(cnn2C(=O)CCCC(=O)NC(C)c2ccccc2)c1 (configuration not stated),-6%,3%,/,-2.1%
C=CCn1cc(/C=N/Nc2nc3ccccc3[nH]2)c2ccccc21,21%,8%,2,-2.0%
Cc1nsc(Nc2ccccc2)c1C#N,8%,5%,-4,2.6%
Cc1c(CCOC(=O)c2ccccc2)sc[n+]1CC(=O)c1ccc(Br)cc1,-1%,?,/,?
O=C(Nc1nc2ccc(F)cc2s1)C1CCN(S(=O)(=O)c2cc([N+](=O)[O-])ccc2Cl)CC1,21%,-3%,-10,-0.1%
COc1ccc(-n2nc(C(=O)NCc3ccco3)c3c4ccccc4n(C)c3c2=O)cc1,-12%,-3%,?,2.4%
# Other records follow:
SMILES,miR-21 reporter,Rango dissoc inh,GLA inh pH 4.5,Rango-impB inh
COc1ccc(NC(=O)c2ccc(OCC3CCCO3)cc2)cc1Cl (configuration not stated),/,-21%,/,1.9%
CS(=O)(=O)c1ccc(Cl)c(NC(=O)COC(=O)c2cccc(S(=O)(=O)N3CCCCC3)c2)c1,-5%,30%,/,-0.8%
O=C(Cc1ccccc1)N/N=C/c1cc2c(cc1Cl)OCO2,-4%,1%,3,-1.5%
COc1ccc(/C=N/NC(=O)c2cc(-c3ccccc3OC(C)C)nc3ccccc23)cc1CN1CCOCC1,18%,-6%,-3,-0.5%
N#C/C(=C\c1ccc(-c2ccc(Br)cc2)o1)C(=O)NCCc1c[nH]c2ccccc12,-2%,?,-9,?
Cc1cc(C)n(CC(=O)Nc2ccccc2)n1,1%,8%,7,-0.9%
CC(/C=C/c1ccco1)=N\NC(=O)CNc1cccc(C)c1,2%,20%,1,0.4%

# Screens: PubChem BioAssay, National Center for Advancing Translational Sciences (NCATS)
